Bioassay records from PubChem BioAssay.
Vaccinia mCherry: qHTS for Stage-Specific Inhibitors of Vaccinia Orthopoxvirus: mCherry Reporter Primary qHTS; Vaccinia virus mCherry reporter infection, fluorescence; about a quarter of the inactives have no number; Potency, µM (doses to about 36.5 µM), for the others: at the top dose activity change, negative = inhibition, hits mostly inhibitors; 0.63% of 310,000 active; AID 720579, 2013; active = well fitted inhibition curve with a large enough effect; inconclusive = small, poorly fitted or top-dose-only effect; inactive = no such curve, though single readings can be large or run the other way; tested in A549 cells; note: nearly all actives have a fitted effect of over 35% in size; inactives centre near -10
Vaccinia Venus: qHTS for Stage-Specific Inhibitors of Vaccinia Orthopoxvirus: Venus Reporter Primary qHTS; Vaccinia virus Venus reporter expression, fluorescence; Potency, µM (highest dose often 36.5 µM), inactives show at the highest dose activity change, negative = inhibition, hits mostly inhibitors; 0.46% of 330,000 active; active means well fitted inhibition curve with a large enough effect; inconclusive means small, poorly fitted or top-dose-only effect; inactive means no such curve, though single readings can be large or run the other way; tested in A549 cells; note: nearly all actives have a fitted effect of over 30% in size; inactives centre near -10
Numbers without * were called inactive; i = inactive; u = inconclusive; x = no result given; & = joins results of further samples; [ ] = dose if it differs, or a comment. % is set by controls: 0 for no effect and ±100 for the full control effect; potency is the fitted concentration of half-maximal effect.

Sequence of screens: Vaccinia Venus, Vaccinia mCherry
> Cc1ccccc1N1CCN(C2CCCN(C(=O)CN3CCCC3=O)C2)CC1 (stereo not drawn)
 : -9.0%, i
> CCOC(=O)N/N=C/c1cn(CCCOc2ccccc2)c2ccccc12
 : -13.1%, -23.5%
> Cc1ccc(CNC(=O)c2ccccc2N(C)S(C)(=O)=O)cc1
 : 4.1%, -16.3%
> CCCn1c(C)cc(/C=C(\C#N)C(=O)OCC(=O)N(CC)c2c(N)n(Cc3ccccc3)c(=O)[nH]c2=O)c1C
 : -10.9%, i
> CCOc1ccc(CNC(=O)CN2C(=O)CSc3c2c(C)nn3-c2ccccc2)cc1
 : -15.1%, 11.4%
> CN1CCN(c2ccc3c(c2)OC[C@H](Cc2ccccc2)NS3(=O)=O)CC1
 : 9.1%, 32.8%[activator]
> COc1cccc(C(=O)Nc2nnc(-c3ccc(OC)cc3OC)s2)c1
 : 0.2%, -2.8%
> COc1ccccc1C(C)NCC(=O)NCC(=O)Nc1ccc(F)c(F)c1F (stereo not drawn)
 : 6.2%, u
> COc1ccc(C2c3ccc(O)cc3Oc3ncn(Cc4ccco4)c(=N)c32)cc1OC (stereo not drawn)
 : -27.0%, u
> Cc1ccccc1OCC(=O)NCC(=O)OCC(=O)c1ccc2c(c1)CCCC2
 : -2.9%, 10.7%
> CCOC(=O)c1cccc(NC(=O)Nc2ccc3c(c2)C(=O)OC3)c1
 : -6.6%, i
> Cc1ccc(OCC(=O)OC(C)CN(C)Cc2ccccc2)cc1 (stereo not drawn)
 : -9.0%, -2.5%
> O=C(O)c1sccc1S(=O)(=O)c1ccccc1
 : u, x
> COc1cccc(C(=O)O/N=C/c2ccc(Sc3ccc(C)cc3)nc2)c1
 : u, x
> CCOC(=O)C1CCCN(C(=O)c2cccc(OC(F)(F)F)c2)CC1 (stereo not drawn)
 : -8.7%, 13.1%
> COc1ccc2oc(-c3ccc(C)c(NC(=O)c4ccc5c(c4)OCCO5)c3)nc2c1
 : -10.2%, 1.4%
> Cc1ccc(SCCC(=O)N/N=C/c2ccncc2)cc1
 : -2.4%, -9.0%
> COc1ccc(Nc2ncnc3ccccc23)c(OC)c1
 : -10.8%, -8.5%
> O=C(Cc1ccccc1)NCC(=O)OCc1ccccc1F
 : -8.7%, i
> CC(C)(C)C1CCc2c(sc(NC(=O)Cn3nnc(-c4ccccc4Cl)n3)c2C#N)C1 (stereo not drawn)
 : 4.5%, -8.9%
> Cc1cccc(-c2nn3c(=O)cc(CN4CCN(C(=O)COc5ccc(Cl)cc5)CC4)nc3s2)c1
 : -22.5%, u
> CCOc1ccc(N=Nc2c(C)[nH]n(-c3ccccc3)c2=O)cc1
 : -9.2%, i
> O=c1[nH]c2ccccc2c(=O)n1Cc1ccccc1
 : -15.9%, -2.8%
> CCc1nnc(SC(CC)C(=O)NCCOC)c2cc3occc3n12 (stereo not drawn)
 : -10.0%, -10.0%
> O=S(=O)(c1cccc(C(F)(F)F)c1)N1Cc2ccccc2-n2nncc2C1
 : -7.5%, u
> O=C1OCC(c2ccccc2)=C1c1ccccc1[N+](=O)[O-]
 : -8.1%, -15.1%
> COc1ccc(-c2nc(CNS(=O)(=O)c3ccccc3)cs2)cc1
 : -12.9%, -22.1%
> Cc1nc2nc(SCC(=O)N(Cc3ccccc3)C(C)C)nn2c(C)c1Cc1ccccc1Cl
 : -7.6%, -16.1%
> Cc1nccn1CC(O)Cn1c2ccccc2c2ccccc21 (stereo not drawn)
 : -26.2%, x
> Cc1cc(C)nc(NC(=O)c2cccc(Cl)c2)n1
 : -0.4%, -3.7%

Brought forward from above: 2 entries, followed by the next part.
Sequence of screens: Vaccinia Venus, Vaccinia mCherry
> Cc1nccn1CC(O)Cn1c2ccccc2c2ccccc21 (stereo not drawn)
 : -26.2%, x
> Cc1cc(C)nc(NC(=O)c2cccc(Cl)c2)n1
 : -0.4%, -3.7%
> COc1ccc(S(=O)(=O)N2CCCCC2)cc1NC(=O)COc1ccccc1
 : -23.1%, -19.7%
> NNC(=O)COc1ccc(-c2n[nH]c(C(F)(F)F)c2-c2ccc(Br)cc2)c(O)c1
 : -15.4%, -26.2%
> Nc1cccc(-n2nnnc2CN2CCOCC2)c1
 : -2.1%, -9.1%
> Cc1nn(C(C)C(=O)O)c2ccccc12 (stereo not drawn)
 : -1.0%, u
> COc1ccc(-c2cc(C(=O)NNC(=O)c3csc(N4CCOCC4)n3)c3ccccc3n2)cc1
 : -13.2%, -3.2%
> CC(=O)N1CCC(=NNc2nc3ccccc3[nH]2)CC1
 : -3.3%, -19.0%
> NC(=NC(=O)c1ccccc1)N1CCOCC1
 : -2.2%, i
> COc1ccc(NC(=O)c2[nH]c(C)c(C(C)=O)c2C)cc1
 : -7.6%, -5.8%
> CCN(CC)C(=O)[C@H]1C[C@H](CC(=O)NCc2cccc(C(F)(F)F)c2)C(=O)N2CCc3c([nH]c4ccc(Cl)cc34)[C@]12C
 : u, u
> Cc1ccc2onc(CC(=O)Nc3ccc(C(C)C)cc3)c2c1
 : -10.8%, -13.1%
> CCOP(=O)(OCC)C(NC(=O)Nc1cccc(Cl)c1)c1ccccc1 (stereo not drawn)
 : -9.3%, -1.3%
> Cn1c(=O)c2c(nc(NCCNC(=O)c3ccco3)n2Cc2ccccc2)n(C)c1=O
 : -10.8%, -19.7%
> O=C(COc1ccc(/C=N/NS(=O)(=O)c2ccccc2)cc1)NCCc1ccccc1
 : -19.1%, -26.1%
> O=C(Nc1ccc([N+](=O)[O-])cc1NC(=O)c1ccccc1)c1ccccc1
 : 3.8%, -10.8%
> O=c1/c(=C\c2ccc(O)cc2)sc2nc(-c3ccccc3)c(-c3ccccc3)n12
 : -10.4%, -26.5%
> NC(=O)c1ccc(SCC(=O)OCC(=O)NCC2CCCCC2)c([N+](=O)[O-])c1
 : -8.3%, -11.1%
> Cc1ccccc1CSc1ccc(-c2cccs2)nn1
 : -16.0%, i
> Cc1cccc(C(=O)Nc2cccc3c2CCCC3)c1
 : -1.5%, -11.9%
> COCCCN(C(=O)C1CCC1)c1c(N)n(Cc2ccccc2)c(=O)[nH]c1=O
 : 0.5%, -1.6%
> CC(=O)Nc1cccc(-n2nnc(SCC(=O)N(C)c3ccccc3)n2)c1
 : -18.5%, i
> Cc1cc(NC(=O)CSc2nnc(-c3cccc(Cl)c3)o2)no1
 : u, u
> CCCCc1nc2ccccc2c(NC(=O)CN2CCCC2)c1CCC
 : -12.6%, i
> Cc1cccc(N/N=C(\C#N)S(=O)(=O)C(C)(C)C)c1
 : -4.6%, 9.7%
> CCN1C(=O)[C@@H]2[C@@H](c3ccc(-c4ccc(OC)cc4)c(OC)c3)N3CCC[C@@]3(C(=O)OC)[C@@H]2C1=O
 : -15.4%, i
> Cc1nnc(N/N=C\c2ccc(-c3ccccc3[N+](=O)[O-])o2)n1N
 : 22.4µM*, u
> COc1ccc(-c2nc(SCC(=O)N3CCCCC3C)n[nH]2)cc1 (stereo not drawn)
 : -8.5%, -5.7%
> N#Cc1ccc(-c2nc3c4ccccc4ccn3c2Cc2ccsc2)cc1
 : -3.8%, -1.2%
> CCc1ccc2c(c1)C1(SC(NC(C)=O)=NN1C(C)=O)C(=O)N2CC (stereo not drawn)
 : 12.1%, -2.1%
> CC1CCc2c(C(=O)NCC3CCCO3)csc2C1 (stereo not drawn)
 : -5.5%, -29.0%
> Cc1ccccc1-c1noc(-c2ccccc2OCC(=O)Nc2cccc([N+](=O)[O-])c2)n1
 : -7.0%, -2.6%
> COc1ccc(N2CC(NC(=O)C(=O)c3c[nH]c4ccccc34)CC2=O)cc1 (stereo not drawn)
 : 1.2%, -10.7%
> CNC(=O)c1sccc1SCc1c(Cl)cccc1Cl
 : -17.6%, -0.7%
> O=C(Nc1ccccc1)OCCCc1ccccc1
 : -1.6%, -11.1%
> CCOC(=O)Cn1c(=O)n(C2CCCCC2)c2nc(-c3cccc(OC)c3)nc(C(N)=O)c21
 : 3.8%, -9.1%
> CCCCC(=O)Nc1ccc(NC(=O)c2ccccc2OC)cn1
 : -10.8%, i
> CCOC(=O)c1nnc2cc(-c3ccc(Br)cc3)nn2c1C
 : -4.8%, -12.2%
> CC(C)CNS(=O)(=O)c1ccc(OCC(=O)NCC2CCCO2)c(Cl)c1 (stereo not drawn)
 : -18.3%, x
> Clc1ccc(N2CCN(c3ncnc4c3cnn4-c3ccccc3)CC2)cc1Cl
 : -10.9%, i
> CCN(CC(=O)NC1CCS(=O)(=O)C1)S(=O)(=O)c1cc([N+](=O)[O-])ccc1C (stereo not drawn)
 : -10.9%, i
> CC(=O)N1CCc2cc(S(=O)(=O)CCC(=O)NCc3ccc(Cl)cc3)ccc21
 : -24.8%&-10.5%, -29.2%&-11.4%
> CN1CCC(=O)N([C@H](CN=[N+]=[N-])Cc2ccccc2)CC1
 : 4.1%&-9.9%, -1.1%
> CC(=O)Nc1ccccc1NC(=O)C/C(C)=N/NC(=O)C(=O)Nc1cccc(Cl)c1C
 : -7.4%, -3.7%
> COC(=O)/C(=C\Nc1ccc(Cl)cc1Cl)NC(=O)c1ccc(OC)cc1
 : -13.5%, -26.6%
> Cc1cccc(CCNc2nc3ccccc3n3nnnc23)c1
 : -3.4%, -14.0%
> COc1cc2c(NC3CCN(C)CC3)nc(N3CCCN(C)CC3)nc2cc1OCCCCC(N)=O
 : -14.5%, -18.4%
> Cn1ccnc1SCC(=O)NC1CC1
 : -2.8%, x
> NS(=O)(=O)c1ccc(CNC(=O)C23CC4CC(CC(C4)C2)C3)cc1
 : -0.6%, -10.2%
> O=C(CCC(=O)N1CCN(c2ccccn2)CC1)c1cccs1
 : -9.3%, -1.5%
> CCCCCn1c(N)c(C#N)c2nc3ccccc3nc21
 : -4.1%, -27.2%
> O=C(NCc1ccccc1)C1(C(F)(F)F)C/C(=C/CCO)CCCO1 (stereo not drawn)
 : -4.3%, i
> COC(=O)c1sc(NC(=O)c2oc3ccccc3c2C)nc1C
 : 2.2%, x
> O=C1CCCCC1C(=O)c1ccccc1 (stereo not drawn)
 : 12.9%, i
> O=C(CC(=O)c1ccccc1)Nc1ccccn1
 : -10.2%, -5.5%
> CC(C(=O)NCc1ccc2c(c1)OCO2)N1c2cccc3cccc(c23)S1(=O)=O (stereo not drawn)
 : -16.0%, -9.4%
> Cc1cc(C)c(NC(=O)CCN2C(=O)c3ccccc3Sc3ncccc32)c(C)c1
 : -12.3%, -12.5%
> Cc1cc(C)n(CCCNCC(O)c2ccccc2)n1 (stereo not drawn)
 : 3.9%&-14.9%, -19.0%&-9.2%
> O=C(NC(=S)N1CCCCC1)c1cccs1
 : -7.5%, -10.7%
> COC(=O)c1ccc(N2CCOCC2)c(NC(=O)Nc2cccc(OC)c2)c1
 : -10.6%, -2.3%
> CCOC(CNC(=O)c1ccc(CNC(=O)c2ccc(OC)c(OC)c2)cc1)OCC
 : -9.7%, -3.7%
> COc1nc(C)nc(NC(=O)NS(=O)(=O)c2ccc(C)cc2)n1
 : -4.0%, i

Other structures:
Sequence of screens: Vaccinia Venus, Vaccinia mCherry
> O=C(COC(=O)c1cccc(S(=O)(=O)NCc2ccccc2)c1)NCC1CCCO1 (stereo not drawn)
 : -2.6%, -21.1%
> COc1cccc(C(=O)NC(=S)N2c3ccccc3CC2C)c1OC (stereo not drawn)
 : 1.5%, -5.7%
> O=c1c2ccccc2oc2cc(-c3ccc4cc[nH]c4c3)ccc12
 : u, i
> Cc1cc2cc3c(cc2nc1SCC(=O)N1CCOCC1)OCO3
 : -2.2%, 12.2%
> CCc1cccc2c1NC1(CCCC1)CC2C (stereo not drawn)
 : -12.5%, i
> O=C(Nc1ccc(C(=O)OCc2cc(=O)n3nc(C4CC4)sc3n2)cc1)c1cccc(F)c1
 : 6.4%, -8.3%
> COc1cccc(N2CC(NC(=O)C(=O)c3c[nH]c4ccccc34)CC2=O)c1 (stereo not drawn)
 : -13.9%, i
> COc1ccc(S(=O)(=O)NCCc2sc(-c3cccc(C)c3)nc2C)cc1
 : -0.4%, -0.9%
> O=C(CCN1C(=O)C2C3C=CC(C3)C2C1=O)NCC1CCCO1 (stereo not drawn)
 : 14.1%, x
> COc1cccc(C(=O)NCC2Cc3cccc(-c4ncccn4)c3O2)c1OC (stereo not drawn)
 : -1.4%, -10.7%
> CCOc1ccccc1NC(=O)CSc1nc2c(c(=O)[nH]1)CCC2
 : -6.8%, -2.9%
> C/C=C/c1ccc(OCCCCNCc2ccco2)c(OC)c1
 : -14.3%, -4.4%
> Cc1[nH]c2c(C(=O)N3CCCC(CCC(=O)NCc4ccccc4F)C3)cccc2c1C (stereo not drawn)
 : -24.6%, u
> Nc1nonc1/C(=N/O)N1CCCC1
 : -8.6%, -13.0%
> CCC(=O)Oc1ccc2c(C)c(Cl)c(=O)oc2c1
 : -7.9%, -15.1%
> COc1ccc(OCCCSc2ncccn2)cc1
 : 2.0%, x
> O=C(Nc1ccccc1Cl)NN1CCCCCC1
 : -10.2%, -11.2%
> COc1ccc(-c2coc3cc(OC(=O)N4CCOCC4)ccc3c2=O)cc1
 : -3.8%, i
> COc1ccc(N2C(=O)CSC2c2ccc(F)cc2)cc1 (stereo not drawn)
 : -2.3%, i
> COc1cc(CC(=O)NCCCc2ccccc2)cc(OC)c1OC
 : -4.1%, -2.2%
> COc1cccc(OC)c1C(=O)Nc1ccc(N2CCN(C(=O)c3cccs3)CC2)cc1
 : -21.0%, -6.0%
> Cc1cc(Cl)ccc1OC(C)C(=O)OCC(=O)c1ccc[nH]1 (stereo not drawn)
 : -17.3%, -16.7%
> COCCNC(=O)COc1ccc(C)cc1C
 : -11.6%, x
> CN(C)CCNC(=O)C(=O)NCC1OCCN1S(=O)(=O)c1cc(F)ccc1F (stereo not drawn)
 : -14.3%, i

Rows were taken by chance; about 0.88% have a hit in one of these screens.
